# Ecoli rRNA inh = reduced GFP signal of wild-type E. coli, primary screen, bacterial rRNA inhibitor project, GFP/RFP fluorescence, OD600, single point. E. coli WT GFP vs humanized-ribosome RFP mutants, 24 h; hits give low values; DMSO median 0, no signal -100. GFP signal change (wild-type ribosome), % (concentration not given with the values). 1.6% of 350,000 active. AID 720706, 2013;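 active = significant combined selectivity score with lowered wild-type GFP, culture density cut under 30%, mutant RFP and density less affected; inactive = any of these conditions unmet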; note: one replicate is shown; some compounds called inactive have numbers as strong as hits
# ALR H2O2 inh = inhibitors of human ALR sulfhydryl oxidase, primary screen, biochemical, H2O2 detection, HRP-luminol luminescence, single point | FAD-linked sulfhydryl oxidase ALR (Homo sapiens), P55789 | purified ALR, DTT oxidation | inhibition, % (concentration not given with the values) | 3.8% of 290,000 active | AID 485317, 2010;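 active = mean and each replicate at 75% or more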;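 note: stock transfer was 7.5 nL into about 7.5 µL; 0% = neutral wells and 100% = wells with inactivated enzyme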
# Target sequence (P55789 whole entry, looked up): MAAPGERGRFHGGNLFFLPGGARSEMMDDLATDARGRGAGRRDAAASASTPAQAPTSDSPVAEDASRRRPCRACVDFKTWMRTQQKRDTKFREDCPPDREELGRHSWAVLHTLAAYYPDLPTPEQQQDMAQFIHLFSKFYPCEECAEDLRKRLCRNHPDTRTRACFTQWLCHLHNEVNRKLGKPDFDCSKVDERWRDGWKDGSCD
# Ecoli growth = E. coli growth inhibition, primary screen, OD600 | Escherichia coli growth, 23 h; hits give low values | OD600 absorbance (concentration not given with the values) | 0.21% of 330,000 active | AID 1053175, 2014;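 active = OD600 absorbance below the run mean of sample wells minus 3.6 SD, in any replicate, cut at about 0.56 in these data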;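 note: stock transfer was 300 nL into about 60 µL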
# HNF4A DNA FP = change in binding of human HNF4A to DNA, primary screen, biochemical, fluorescence polarization, FITC-DNA; 1 h; 0.3% of 360,000 active; activity change, % at 10 µM; in the data active = activity change above about 30%, passing the limit was not always enough;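 note: controls were the assay level and a saturating level of protein; the project sought stronger binding though the title names inhibitors; some compounds called inactive have numbers as strong as hits; positive values seem to mean higher polarization but the record does not say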
# Target sequence (P41235 whole entry, looked up): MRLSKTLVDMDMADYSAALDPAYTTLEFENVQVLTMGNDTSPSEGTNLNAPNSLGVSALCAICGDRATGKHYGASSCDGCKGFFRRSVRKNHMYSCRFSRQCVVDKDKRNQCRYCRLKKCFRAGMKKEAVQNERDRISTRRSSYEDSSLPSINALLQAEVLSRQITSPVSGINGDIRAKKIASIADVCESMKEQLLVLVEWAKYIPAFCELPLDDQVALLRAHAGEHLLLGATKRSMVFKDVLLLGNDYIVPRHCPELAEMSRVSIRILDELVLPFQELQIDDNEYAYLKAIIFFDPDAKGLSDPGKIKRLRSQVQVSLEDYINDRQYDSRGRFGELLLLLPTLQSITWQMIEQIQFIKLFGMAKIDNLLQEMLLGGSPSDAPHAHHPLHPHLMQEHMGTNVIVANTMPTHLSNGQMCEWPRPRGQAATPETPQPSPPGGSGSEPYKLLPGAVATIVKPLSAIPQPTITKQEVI
# B2AR ag = beta2AR agonists driving receptor internalization, primary screen, cell-based, FAP fluorogen, flow cytometry. Am2.2-beta2AR cells; reference of the scale not given here. response, % (test concentration not listed). 0.43% of 340,000 active. AID 504454, 2011;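 active = response above a set limit, near 3 SD of response in nonfluorescent compounds, cut at about 42% in these data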;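 note: stock transfer was 100 nL into about 11 µL; a reference agonist was the positive control; negative values mostly stem from fluorescent compounds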
# UCH37 DUB inh = inhibitors of human UCH37 deubiquitinase, primary screen, biochemical, Ub-AMC cleavage, fluorescence. 0.33% of 330,000 active. AID 588478, 2011. inhibition, % (no concentration beside the values). purified proteasome/UCH37. Ubiquitin carboxyl-terminal hydrolase isozyme L5 (Homo sapiens), Q9Y5K5;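 active = mean of two replicates above 20%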;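 note: 0% = compound-free wells with enzyme and 100% = wells lacking proteasome; stock transfer was 100 nL into about 20 µL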
# Target sequence (Q9Y5K5 whole entry, looked up): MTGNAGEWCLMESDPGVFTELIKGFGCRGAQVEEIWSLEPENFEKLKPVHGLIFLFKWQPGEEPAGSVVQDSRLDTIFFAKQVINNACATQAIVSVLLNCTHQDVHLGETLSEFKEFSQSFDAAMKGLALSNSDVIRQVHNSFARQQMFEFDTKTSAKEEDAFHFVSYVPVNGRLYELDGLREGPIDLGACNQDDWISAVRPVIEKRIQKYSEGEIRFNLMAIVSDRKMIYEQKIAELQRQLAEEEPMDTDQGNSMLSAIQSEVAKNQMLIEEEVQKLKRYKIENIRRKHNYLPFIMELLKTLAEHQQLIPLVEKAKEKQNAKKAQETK
#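 Material: Human UCH37 enzyme supplied as purified proteasome complex | Schedule: 30 min preincubation with enzyme, 25 min cleavage at room temperature | Detection: AMC fluorescence 355/460 nm | Measure: % inhibition of Ub-AMC cleavage fluorescence | Controls: Wells without proteasome as full block, compound-free enzyme plus substrate as uninhibited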
# FGF22 binding = binders of human FGF22 protein, primary screen, FGF22 synaptogenesis inhibitor project, biophysical, thermal shift, single point. 1.5% of 340,000 active. calls only at 9.99 µM. recombinant FGF22 thermal shift, SYPRO orange fluorescence; percent of sucrose octasulfate shift, DMSO zero. Fibroblast growth factor 22 (Homo sapiens), Q9HCT0;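 active = melting point raised past a set limit in the mean and every replicate; three in four hits are not shown here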
# Ecoli rRNA inh OD600 = further read-out of Ecoli rRNA inh, marked with its call; OD600 change, %; measured here: OD600 growth;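 optical density of the mix in the first replicate; 0 = DMSO median and -100 = no signal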
# Ecoli rRNA inh RFP = second read-out of Ecoli rRNA inh, no call of its own (marks repeat the call); RFP signal change, %; measured here: RFP humanized mutant strains;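 first replicate; 0 = DMSO median and -100 = no signal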
# * marks the source's active call; other numbers are inactive results; i = inactive; nt = not tested or not shown. An excerpt; count on the stated rates, not on these rows.
SMILES,Ecoli rRNA inh,Ecoli rRNA inh OD600,Ecoli rRNA inh RFP,ALR H2O2 inh,Ecoli growth,HNF4A DNA FP,B2AR ag,UCH37 DUB inh,FGF22 binding
O=C(CCn1c(=O)c2ccccc2n(CC(=O)NC2CCCC2)c1=O)NCc1ccco1,nt,nt,nt,-23,0.71,2.7,4,0.0,nt
C/C(CC(=O)NCCCN1CCOCC1)=N\NC(=O)COc1ccc(Cl)cc1,nt,nt,nt,-6,nt,1.4,-7,nt,nt
NC(=O)c1ncn([C@@H]2O[C@H](CO)[C@@H](O)[C@H]2O)c1O,-28,-53,21,-17,nt,3.8,-5,1.6,i
Cc1cccc(N2C(=O)CSC23CCCCC3)c1,5,-4,-2.0,-4,0.68,-1.4,2,5.5,i
Cc1ccc(-c2nc(C(F)(F)F)cc(=O)[nH]2)cc1,-4,4,-0.6,-11,0.66,2.6,5,2.4,i
C#CCOCCOCCOCCNc1nc(N2CCN(C(=O)[C@H]([C@@H](C)CC)n3cc([C@@H](N)Cc4ccc(O)cc4)nn3)CC2)nc(N2CCN(C(=O)[C@H]([C@@H](C)CC)n3cc([C@@H](N)CC(C)C)nn3)CC2)n1,-39,-67,27,-3,nt,-0.2,0,1.2,i
CN(C(=O)CN1CCC(NC(=O)c2ccccc2Br)CC1)C1CCCCC1,5,15,-1.8,nt,0.68,2.5,-4,0.8,i
CCC(c1nnnn1CCc1ccccc1)N1CCN(c2ccc(OC)cc2)CC1 (stereo unspecified),nt,nt,nt,11,0.76,0.3,1,0.4,nt
Cc1ccc(-c2csc3nc4c5ccccc5c(NCCCN5CCOCC5)nn4c(=O)c23)cc1,nt,nt,nt,-4,0.68,nt,nt,-214,nt
O=C(CNc1cccc2ccccc12)N/N=C/c1ccc(C(=O)O)cc1,-22,-29,-5.7,nt,nt,-0.8,3,nt,i
Cc1nn(-c2ccccc2)c2sc(C(=O)n3cccn3)cc12,nt,nt,nt,27,0.75,3.6,2,-70,nt
Cc1c(NC(=S)NC(=O)c2ccco2)c(=O)n(-c2ccccc2)n1C,nt,nt,nt,19,0.62,-2.4,2,2.8,nt
O=C1CN=C(Nc2ccccc2Cl)N1Cc1ccc2c(c1)OCO2,nt,nt,nt,nt,0.71,-0.9,3,-1.6,nt
O=C(CCSCCC(=O)NN=Cc1cccc(Cl)c1)NN=Cc1cccc(Cl)c1,-4,9,9.1,nt,0.65,-2.0,-2,0.3,i
CN(C(=O)COC(=O)c1cc(S(=O)(=O)N2CCCCC2)ccc1Cl)c1ccccc1,-10,-34,-4.8,-5,0.68,1.1,21,4.0,i
S=c1[nH]nc(-c2cccnc2)n1/N=C/c1cccs1,nt,nt,nt,97*,nt,0.4,-8,nt,nt
N=C1C(c2nc3ccccc3[nH]2)=C(O)CN1c1ccc(CC(=O)O)cc1,nt,nt,nt,73,0.74,2.3,-4,1.5,nt
COc1cccc(-n2nc(C(C)=O)c(C#N)c2-c2ccco2)c1,-6,-2,-4.2,-20,nt,-2.0,0,nt,i
Cn1c(=O)oc2cc(S(=O)(=O)N3CCC(C(=O)NCc4ccccc4Cl)CC3)ccc21,9,18,-1.6,-3,0.7,0.9,-4,2.6,i
CCCCN(C)C(=O)Cc1c(OC)ccc2cc(Br)ccc12,nt,nt,nt,nt,0.67,1.2,-16,2.4,nt

# In the list so far, these have an NH in an aromatic ring.
SMILES,Ecoli rRNA inh,Ecoli rRNA inh OD600,Ecoli rRNA inh RFP,ALR H2O2 inh,Ecoli growth,HNF4A DNA FP,B2AR ag,UCH37 DUB inh,FGF22 binding
Cc1ccc(-c2nc(C(F)(F)F)cc(=O)[nH]2)cc1,-4,4,-0.6,-11,0.66,2.6,5,2.4,i
S=c1[nH]nc(-c2cccnc2)n1/N=C/c1cccs1,nt,nt,nt,97*,nt,0.4,-8,nt,nt
N=C1C(c2nc3ccccc3[nH]2)=C(O)CN1c1ccc(CC(=O)O)cc1,nt,nt,nt,73,0.74,2.3,-4,1.5,nt

# Next results follow:
SMILES,Ecoli rRNA inh,Ecoli rRNA inh OD600,Ecoli rRNA inh RFP,ALR H2O2 inh,Ecoli growth,HNF4A DNA FP,B2AR ag,UCH37 DUB inh,FGF22 binding
CN(c1cccc(NC(=O)CN(c2ccc(F)cc2)S(C)(=O)=O)c1)S(C)(=O)=O,7,10,-1.2,14,0.69,-1.6,4,2.3,i
O=C(O)C1CC=CCC1C(=O)NCc1cn2ccccc2n1 (stereo unspecified),1,0,-1.6,nt,0.76,-4.7,-2,-0.1,i
COc1cccc(NC(=O)Cn2c(=O)n(CCCC(=O)NCc3ccco3)c(=O)c3ccccc32)c1,nt,nt,nt,nt,0.7,-1.0,-14,1.4,nt
COc1ccc(/C=C(\NC(=O)c2ccccc2Cl)C(=O)NCCCC(=O)O)cc1,14,5,-0.6,nt,0.7,-0.2,-1,1.8,nt
CCCCn1cnc2c(=S)nc(N)[nH]c21,8,2,3.0,18,0.63,0.2,2,8.6,i
COCC(=O)Nc1cccc(-c2ccc3nncn3n2)c1,9,8,-0.9,nt,0.7,0.4,-8,2.5,i
COc1ccc(NS(=O)(=O)c2ccc3c(c2)CCO3)cc1,3,-3,2.9,nt,0.71,-1.0,-5,2.8,i
Cc1ccc2nsnc2c1S(=O)(=O)N1CCN(C)CC1,8,1,-1.1,0,0.65,-1.1,-4,4.0,i
CN1C(C(=O)NCc2ccccc2)CC2Cn3c(nc4cc(Cl)c(Cl)cc43)C21 (stereo unspecified),-13,-5,4.0,nt,0.63,-2.4,-8,2.6,i
CC(C)[C@@H]1CC[C@@H](C)c2c(-c3ccccc3)n[nH]c21,nt,nt,nt,2,0.74,-1.1,21,-0.4,nt
Cc1cccc(NC(=O)CSc2nncn2N)c1C,3,7,-4.4,nt,nt,-2.5,nt,nt,i
O=C(O)c1ccc(NC(=S)NC(=O)c2ccc(-c3ccc(Br)cc3)o2)cc1,nt,nt,nt,93*,nt,-64,0,nt,i
COc1cccc(CNC(=O)CSc2ccc(-c3ccco3)nn2)c1,-7,6,-3.5,1,0.67,-0.3,0,4.0,i
COC(=O)COc1ccc2occ(C(C)=O)c2c1,21,7,0.7,-2,0.73,-0.7,8,6.3,i
CC(/C=C/c1ccco1)=N\NC(=O)CNc1cccc(C)c1,9,8,-7.1,17,nt,-1.2,-15,nt,i
O=C1C2C3C=CC([C@@H]2C(=O)N1c1nccs1)C31CC1 (stereo partly specified),nt,nt,nt,0,0.75,0.7,-1,-2.5,nt
O=C(NCc1ccc(F)cc1)C1CCCN1C(=O)Nc1ccc(F)cc1 (stereo unspecified),2,11,0.5,-2,0.67,-1.1,5,-0.9,i
CC(C)(C)c1ccc(-c2n[nH]c(=S)n2CC2CCCO2)cc1 (stereo unspecified),-38,-52,2.9,8,0.69,2.4,6,1.8,i
COc1ccc(Cc2nnc3sc(SCC(=O)Nc4ccccc4)nn3c2=O)cc1OC,1,-9,-1.0,64,0.7,1.9,-2,6.5,i
CC(C)C(=O)Nc1ccccc1N1CCN(C(=O)c2ccccc2)CC1,nt,nt,nt,-12,0.76,2.2,0,1.9,nt
O=C(c1c[nH]c2ccc(S(=O)(=O)N3CCC4(CC3)OCCO4)cc2c1=O)N1CCOCC1,nt,nt,nt,nt,0.74,4.2,1,-13,nt
CCN(CC)c1ccc(CNc2nc3ccccc3n2CCN2CCCCC2)cc1,-51,-80,-13,99*,0.62,0.8,32,4.6,nt
CC(=O)c1ccc(NC(=O)C2CC(=O)N(C(C)C)C2)cc1 (stereo unspecified),8,3,-1.9,nt,0.71,2.2,-2,0.4,nt
COc1ccc(N2CCN(C(=O)CCNS(=O)(=O)c3ccccc3)CC2)cc1,0,10,2.6,98*,0.63,0.8,-7,0.9,i
O=C(Nc1ccccc1)c1sc(Cl)nc1-c1ccccc1,nt,nt,nt,94*,0.63,2.6,-22,3.0,nt
COc1ccc(CCNc2c(C=O)c(=O)[nH]c3ccccc23)cc1OC,12,14,1.9,-4,0.69,0.4,6,3.7,i
COc1cc2[nH]c(=S)n(Cc3ccc(F)cc3)c(=O)c2cc1OC,3,8,0.2,30,0.7,3.8,6,1.4,i
COc1ccccc1OCc1ccc(C(=O)N2N=C(C(F)F)CC2(O)C(F)F)o1 (stereo unspecified),nt,nt,nt,4,0.65,-0.7,-7,1.1,nt
CN(C)c1ccc(NC(=O)CSc2nnc(C3CCCCC3)n2N)cc1,12,2,3.4,99*,0.68,7.1,0,7.9,i
O=[N+]([O-])c1ccc(C2CC(c3ccccc3)=Nc3ccccc3S2)cc1 (stereo unspecified),1,3,-1.5,24,nt,1.1,-9,nt,i
O=C1CC(c2ccco2)CC(O)=C1C=Nc1ccc(Br)cc1 (stereo unspecified),nt,nt,nt,-17,0.73,-5.4,14,-10,nt
CC(=O)c1cc(OC(=O)N2CCOCC2)ccc1OC(=O)N1CCOCC1,nt,nt,nt,2,0.7,2.3,-4,-0.2,nt
CCCn1c(=O)c2ccccc2n2c(SCc3nnc(-c4ccccc4Br)o3)nnc12,3,-2,-4.7,-2,0.69,1.6,-5,3.2,i
CC(C)C(=O)N1N=C2CCCCC2C1(O)C(F)(F)F (stereo unspecified),2,5,-0.4,-1,0.7,-0.9,2,3.9,i
NC(=O)N/N=C/c1cn(CC(=O)Nc2ccc(F)cc2)c2ccccc12,-17,-6,-2.3,-7,nt,0.8,-5,nt,i

# Exported with two lines to a compound: 6 of the compounds above
# Second line of a record: Ecoli rRNA inh | Ecoli rRNA inh OD600 | Ecoli rRNA inh RFP | ALR H2O2 inh | Ecoli growth | HNF4A DNA FP | B2AR ag | UCH37 DUB inh | FGF22 binding
- O=C(Nc1ccccc1)c1sc(Cl)nc1-c1ccccc1
  nt | nt | nt | 94* | 0.63 | 2.6 | -22 | 3.0 | nt
- COc1ccccc1OCc1ccc(C(=O)N2N=C(C(F)F)CC2(O)C(F)F)o1 (stereo unspecified)
  nt | nt | nt | 4 | 0.65 | -0.7 | -7 | 1.1 | nt
- CC(=O)c1ccc(NC(=O)C2CC(=O)N(C(C)C)C2)cc1 (stereo unspecified)
  8 | 3 | -1.9 | nt | 0.71 | 2.2 | -2 | 0.4 | nt
- NC(=O)N/N=C/c1cn(CC(=O)Nc2ccc(F)cc2)c2ccccc12
  -17 | -6 | -2.3 | -7 | nt | 0.8 | -5 | nt | i
- CN(C)c1ccc(NC(=O)CSc2nnc(C3CCCCC3)n2N)cc1
  12 | 2 | 3.4 | 99* | 0.68 | 7.1 | 0 | 7.9 | i
- CCN(CC)c1ccc(CNc2nc3ccccc3n2CCN2CCCCC2)cc1
  -51 | -80 | -13 | 99* | 0.62 | 0.8 | 32 | 4.6 | nt

# Source: PubChem BioAssay
